Screening results deposited in PubChem by Broad Institute.
A1 inh: blocks A1 activity; MEF A1-2A-BIM cells, caspase-Glo luminescence, 3 h; percent of clofoctol signal, DMSO as zero; caspase activation, % (test concentration not listed); 21,000 tested, 0.51% active; AID 2241;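 active means most replicate scores above 10, or exactly half above 10 with mean activity above 10; inconclusive means mean activity below 10 while half the replicates exceed 10; inactive means most replicate scores below 10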;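 further: effector caspase 3 and 7 activity cleaving a DEVD luciferin substrate; 50 nL library stock added to about 30 µL; numbers are from one replicate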
BJeLR viability: lowers viability of BJeLR cells; viability loss activity score, % (test concentration not listed); BJeLR fibroblasts viability, CellTiterGlo ATP luminescence, 48 h; HRASV12, hTERT and SV40 LT/ST transformed; AID 2275; 30,000 tested, 0.64% active; in the data active means viability loss activity score above about 50%; inconclusive means no clear call, values can overlap the other calls; inactive means below about 35%; about a fifth of its hits are not listed in these tables;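 further: higher score means fewer live cells and less ATP luminescence; stock transfer was 50 or 100 nL into about 30 µL; 0% = vehicle wells and 100% = a reference killing control; one replicate is shown; the record names a cut of 85%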
* = called active by the depositor; ? = inconclusive; / = not tested or not shown. A portion of the library (hit frequency here may not be typical).

structure | A1 inh | BJeLR viability
Cc1noc(C)c1NC(=O)N(C)C[C@H]1Oc2ccc(N(C)C)cc2C(=O)N([C@@H](C)CO)C[C@H]1C | -0.8 | -5.4
C[C@@H]1CN([C@H](C)CO)C(=O)c2cc(NS(=O)(=O)c3ccc(Cl)cc3)ccc2O[C@H]1CN(C)S(=O)(=O)c1ccc(Cl)cc1 | 0.9 | -1.9
Cc1noc(C)c1S(=O)(=O)Nc1ccc2c(c1)C(=O)N([C@H](C)CO)C[C@@H](C)[C@@H](CN(C)Cc1ccc(C(F)(F)F)cc1)O2 | -0.6 | -2.4
CCC(=O)Oc1cc2c(C)cc(=O)oc2cc1Cl | -2.0 | -2.4
CCN(CC)C(=O)CSc1nc2c(c(=O)n(C)c(=O)n2C)n1CC | -0.8 | -3.1
C[C@@H]1CN([C@H](C)CO)C(=O)c2cc(NC(=O)Cc3ccccc3)ccc2O[C@@H]1CN(C)Cc1ccc(C(=O)Nc2ccccc2N)cc1 | / | 11
COc1ccc(-c2cc(-c3ccccc3)c(-c3ccccc3)nn2)cc1CN1CCOCC1 | 0.2 | 3.4
CCN(CC)C1=N/C(=C/c2ccccc2)C(=O)N1c1ccc(Cl)cc1 | 0.2 | -1.0
CN(Cc1ccccc1)C(=O)c1cc(-c2ccc(Cl)cc2)on1 | / | 3.1
O=C1c2ccccc2C(=O)N1CC1OCc2ccccc2CO1 | / | 5.3
O=C1N/C(=C\c2ccccc2Cl)C(=O)N1Cc1ccc(Cl)cc1 | 0.9 | 1.7
C[C@H]1CN([C@@H](C)CO)C(=O)c2cccc(NS(=O)(=O)c3ccc(Cl)cc3)c2O[C@H]1CN(C)Cc1ccc(C(=O)O)cc1 | / | -0.3
C[C@@H]1CN([C@@H](C)CO)C(=O)c2cc(NS(=O)(=O)c3cccs3)ccc2O[C@H]1CN(C)CC1CC1 | -0.6 | 2.8
C[C@H](CO)N1C[C@H](C)[C@@H](CN(C)C)Oc2c(NC(=O)Nc3ccccc3)cccc2C1=O | / | 0.1
C[C@H]1CN([C@@H](C)CO)C(=O)c2cc(NS(=O)(=O)c3ccc(F)cc3)ccc2O[C@@H]1CN(C)S(C)(=O)=O | -0.9 | -0.7
O=C(Nc1cccc(Br)c1)c1cccc2c1C(=O)c1ccccc1-2 | 26* | 0.8
Cc1ccccc1C(=O)NC(=S)Nc1ccc(-c2nc3ccccc3o2)cc1 | 0.7 | -3.5
N#CCC(=O)NC(=O)NC12CC3CC(CC(C3)C1)C2 | 0.0 | 3.1
CC(=O)Nc1cc(C(=O)NCCN(C)C)ccc1Sc1ccc(C)cc1 | 0.6 | 1.3
CC(C)NC(=O)N(C)C[C@H]1Oc2c(NC(=O)c3ccc(-c4nccs4)cc3)cccc2C(=O)N([C@@H](C)CO)C[C@H]1C | / | -4.7
O=C(NCCc1ccc(Cl)cc1)c1ccc2c(Cl)c3c(nc2c1)CCCC3 | / | -5.6
CC(=O)Nc1ccc(S(=O)(=O)N2CCCC2C(=O)O)cc1 (centres undefined) | 0.1 | 5.3
CC1CCCCC1N(C)C1CCN(CCNC(=O)/C=C/c2ccccc2)CC1 (centres undefined) | / | -0.5
CCCC1CCC(C(=O)n2nc(N)c3cc4ccc(OC)cc4nc32)CC1 (centres undefined) | -0.3 | 1.6
CCOc1ccc(N=CC2=C(O)CNC2=O)cc1 | 0.4 | -2.5
C[C@@H]1CN([C@H](C)CO)C(=O)c2cccc(NS(=O)(=O)c3cccs3)c2O[C@@H]1CN(C)Cc1ccncc1 | / | 0.9
O=C(/C=C/c1ccccc1)C1CC1 | 1.5 | -4.0
O=C1C2C3C=CC(C3)C2C(=O)N1Cc1ccco1 (centres undefined) | -0.2 | 2.4
COC(=O)c1cc2occc2n1CC(=O)N(C)C1CCCCC1 | 0.0 | -0.5
CCOc1ccc(-c2cc(NC(=O)Nc3ccc(F)cc3)c(C(=O)OC)s2)cc1 | 1.3 | -5.7
C/C=C/C1=C(Cl)C(=O)[C@@H](O)[C@@]1(O)C(=O)OC | -0.8 | -5.1
O=C(c1ccccc1)c1nnn(-c2ccccc2)c1Nc1ccccc1 | 0.3 | -3.0
CC1CN(C(=O)Nc2ccc(Cl)cc2)c2ccccc2O1 (centres undefined) | 0.0 | 1.7
CCOC(=O)c1cnc(-c2cccs2)nc1Nc1ccc(C)cc1 | -0.2 | 1.3
O=C(Cc1noc2ccccc12)N1CCCC1 | 0.1 | -5.1
C[C@@H]1CN([C@@H](C)CO)C(=O)c2cc(NC(=O)c3ccncc3)ccc2O[C@H]1CN(C)Cc1ccc(Cl)c(Cl)c1 | -0.2 | 0.8
O=C(NCc1ccc2c(c1)OCO2)Oc1ccccc1 | -4.1 | -4.3
COc1cccc(CN2c3cccc4cccc(c34)S2(=O)=O)c1 | 0.1 | -4.3
CN(C)c1ccc(-c2nc3ccc4ccccc4c3c3c2CCC3)cc1 | 0.6 | 1.7
C[C@H](CO)N1C[C@H](C)[C@H](CN(C)CC2CCCCC2)Oc2ccc(NC(=O)Cn3cnnn3)cc2C1=O | 0.4 | 0.1
c1ccc(Cn2c3ccccc3n3nc(-c4ccccc4)nc23)cc1 | / | 0.8
Cc1cc(C)nc(SCC(=O)NN)n1 | 0.1 | -1.9
C[C@H](CO)N1C[C@H](C)[C@H](CN(C)Cc2ccc3c(c2)OCO3)Oc2c(NS(=O)(=O)c3cn(C)cn3)cccc2C1=O | / | 0.2
C[C@@H]1CN([C@@H](C)CO)C(=O)c2cccc(NC(=O)c3ccncc3)c2O[C@@H]1CN(C)C(=O)Nc1ccc2c(c1)OCO2 | / | 4.0
COc1ccc(NC(=O)N(C)C[C@H]2Oc3ccc(NC(=O)Cn4cnnn4)cc3C(=O)N([C@H](C)CO)C[C@@H]2C)cc1 | -0.2 | 5.1
CCc1ccc(/C=C2/C(=O)N(c3ccccc3)N=C2C)cc1 | / | 3.3
Cc1ccc(S(=O)(=O)N(C)C[C@H]2Oc3c(NC(=O)NC(C)C)cccc3C(=O)N([C@@H](C)CO)C[C@H]2C)cc1 | / | -2.4
CCCCC(O)(c1ccc(OC)cc1)C(CN1CCOCC1)c1ccccc1 (centres undefined) | 0.0 | 6.7

Entries above that contain a furan ring, fused or not, in the order listed:
structure | A1 inh | BJeLR viability
O=C1C2C3C=CC(C3)C2C(=O)N1Cc1ccco1 (centres undefined) | -0.2 | 2.4
COC(=O)c1cc2occc2n1CC(=O)N(C)C1CCCCC1 | 0.0 | -0.5

Other records
structure | A1 inh | BJeLR viability
CCC(C)NC(=O)CSc1nc2ccsc2c(=O)n1-c1cccc(Cl)c1Cl (centres undefined) | -0.3 | 6.0
O=C(NCc1ccc(-c2cccs2)s1)NC(=O)c1ccccc1 | 0.0 | 0.9
COc1ccc(C(=O)NC(CO)(CO)CO)cc1OC | 0.3 | -2.4
Cc1ccc(S(=O)(=O)N(C)C[C@H]2Oc3c(NC(=O)NC(C)C)cccc3C(=O)N([C@H](C)CO)C[C@H]2C)cc1 | / | 2.9
Cc1noc(C)c1NC(=O)Nc1ccc2c(c1)C(=O)N([C@@H](C)CO)C[C@@H](C)[C@@H](CN(C)C(=O)NC(C)C)O2 | 0.5 | -0.7
Cc1onc(-c2ccccc2)c1-c1ccc(S(N)(=O)=O)cc1 | 0.6 | 1.2
COc1cccc(/C=C2/Oc3ccccc3N(CC(=O)NCC3CCCO3)C2=O)c1 (centres undefined) | / | -0.3
C[C@@H]1CN([C@H](C)CO)C(=O)c2cccc(NC(=O)Nc3ccccc3)c2O[C@@H]1CN(C)Cc1ccc2c(c1)OCO2 | / | -1.1
Cc1ccc(S(=O)(=O)N(C)C[C@@H]2Oc3c(NC(=O)Nc4ccc(C(F)(F)F)cc4)cccc3C(=O)N([C@H](C)CO)C[C@@H]2C)cc1 | / | 2.4
C[C@H]1CC[C@@H]2[C@@H](C(=O)c3c(O)c([C@]4(O)CC[C@@H](O)[C@H]5O[C@H]54)cn(O)c3=O)[C@@H](C)C=C[C@H]2C1 | 46* | 53*
C[C@H](CO)N1C[C@H](C)[C@@H](CN(C)Cc2ccc(-c3ccccc3)cc2)Oc2ccc(NS(=O)(=O)c3ccccc3)cc2C1=O | 0.4 | -1.2
C[C@@H]1CN([C@@H](C)CO)C(=O)c2cc(NC(=O)c3ccncc3)ccc2O[C@@H]1CN(C)Cc1ccncc1 | 0.1 | -2.2
COC(=O)c1c(NC(=O)Nc2ccccc2)sc2c1CCCC2 | -0.2 | -4.6
OCCSc1nc2ccccc2n1Cc1ccccc1 | 1.2 | 3.3
CNC[C@H]1Oc2c(NC(=O)NC3CCCCC3)cccc2C(=O)N([C@@H](C)CO)C[C@H]1C | / | 2.3
COc1ccc(NC(=O)Nc2cccc3c2O[C@@H](CN(C)S(C)(=O)=O)[C@@H](C)CN([C@H](C)CO)C3=O)cc1 | / | 3.1

Among those listed so far, these have a CF3 group.
structure | A1 inh | BJeLR viability
Cc1noc(C)c1S(=O)(=O)Nc1ccc2c(c1)C(=O)N([C@H](C)CO)C[C@@H](C)[C@@H](CN(C)Cc1ccc(C(F)(F)F)cc1)O2 | -0.6 | -2.4
Cc1ccc(S(=O)(=O)N(C)C[C@@H]2Oc3c(NC(=O)Nc4ccc(C(F)(F)F)cc4)cccc3C(=O)N([C@H](C)CO)C[C@@H]2C)cc1 | / | 2.4

Next part.
structure | A1 inh | BJeLR viability
C[C@H](CO)N1C[C@H](C)[C@H](CN(C)Cc2ccc(Oc3ccccc3)cc2)Oc2c(NC(=O)c3ccc(-c4nccs4)cc3)cccc2C1=O | / | -2.1
CC(C)NC(=O)N(C)C[C@H]1Oc2c(NS(=O)(=O)c3cccs3)cccc2C(=O)N([C@@H](C)CO)C[C@H]1C | / | 2.0
Cc1ccc(C(=O)CN(Cc2ccccc2)c2ccccc2)cc1 | -0.2 | 8.1
COc1ccc(CN(C)C[C@@H]2Oc3c(NC(=O)c4ccc(-c5nccs5)cc4)cccc3C(=O)N([C@H](C)CO)C[C@H]2C)cc1 | / | -1.5
Cc1ccc(N2C(=O)CC2(C(=O)NC2CCCCC2)c2cccs2)cc1 (centres undefined) | -0.6 | 5.8
NC(=O)c1cc(Cl)c(Cl)cc1C(N)=O | -0.6 | -3.3
C[C@@H]1CN([C@@H](C)CO)C(=O)c2cc(NC(=O)Nc3ccc4c(c3)OCO4)ccc2O[C@H]1CN(C)Cc1ccc(C(=O)Nc2ccccc2N)cc1 | / | -5.5
Cc1c(CNC(=O)c2ccc(C(F)(F)F)cc2)sc2ccccc12 | -0.4 | 3.1
Cc1cccc(CN2CCC(CNC(=O)c3ccc4c(Cl)c5c(nc4c3)CCCC5)CC2)c1 | / | ?
CC(C)c1ccc(NC(=O)CSCc2csc3ccccc23)cc1 | -0.3 | 2.1
COC(=O)c1ccccc1NC(=O)CSc1nnc(CSc2nc(C)cc(C)n2)o1 | 0.0 | 4.7
CCOC(=O)c1sc(SCCS(=O)(=O)c2ccc(Cl)cc2)c2c1CCCC2=O | -0.9 | 4.1
O=c1[nH]c2nonc2nc1/C=C(\O)c1ccccc1 | / | 7.6
c1ccc(-c2nnc3sc(-c4ccc5c(c4)OCO5)nn23)cc1 | / | 2.9
O=C(NC(=S)NCc1ccco1)c1ccccc1 | -0.3 | -0.8
COc1ccc(C2=NN(S(C)(=O)=O)C(c3ccccc3OC)C2)cc1 (centres undefined) | -0.2 | -2.2
Cc1noc(C)c1NC(=O)N(C)C[C@@H]1Oc2c(cccc2N(C)C)C(=O)N([C@@H](C)CO)C[C@@H]1C | / | 2.8
C[C@H]1CN([C@@H](C)CO)C(=O)c2cc(NC(=O)Nc3ccc4c(c3)OCO4)ccc2O[C@H]1CN(C)C | 1.3 | 0.7
O=S(=O)(NCc1csc(-c2cccnc2)n1)c1ccc2c(c1)CCCC2 | -0.1 | 1.8
CCN(CC)C(=O)CSc1nnc(-c2ccccc2Cl)o1 | -0.2 | -1.7
O=C1c2ccccc2C(=O)N1CN(C(=O)C(F)(F)F)c1ccc(Cl)cc1 | 0.9 | -1.9
CCCC(=O)N1CCc2cc(OC)c(OC)cc2C1COc1ccc(OC)cc1 (centres undefined) | -0.1 | 2.9
CCOC(=O)c1sc(SCc2ccccc2)c2c1-c1sccc1N(C)S2(=O)=O | -0.2 | -2.9
Cc1cc(O)c(Cc2c(O)cc(C)oc2=O)c(=O)o1 | -0.5 | 2.1
C[C@@H]1CN([C@H](C)CO)C(=O)c2cc(NS(C)(=O)=O)ccc2O[C@@H]1CN(C)S(=O)(=O)c1ccc(Cl)cc1 | -0.3 | 0.5
N#CCSc1nnc(-c2ncc(C(F)(F)F)cc2Cl)n1-c1ccc(Cl)cc1 | 0.8 | 2.9
Cc1nc(C2C(=O)c3ccc(O)c(O)c3OC2C(F)(F)F)cs1 (centres undefined) | 0.1 | -5.5
C[C@@H]1CN([C@@H](C)CO)C(=O)c2cccc(NC(=O)c3nc4ccccc4s3)c2O[C@H]1CN(C)Cc1ccc(Cl)c(Cl)c1 | / | -8.4
COc1ccc(CCN2CCC(Nc3nc4ccccc4n3Cc3ccc(F)cc3)CC2)cc1 | 0.4 | -6.7
CC(C)C(=O)Nc1nc2ccccc2s1 | -5.5 | 2.2
COc1ccccc1NC1=NC(CO)(CO)CS1 | / | 0.7
COc1ccc(S(=O)(=O)N(C)C[C@@H]2Oc3ccc(NC(=O)Nc4ccc5c(c4)OCO5)cc3C(=O)N([C@H](C)CO)C[C@H]2C)cc1 | 1.5 | 2.5
COc1ccc(N2CCN(CCNC(=O)c3ccc(NC(=O)C4CCCO4)cc3)CC2)cc1 (centres undefined) | / | 0.2
C[C@H]1CN([C@@H](C)CO)C(=O)c2cccc(NC(=O)Nc3ccc(C(F)(F)F)cc3)c2O[C@H]1CN(C)C | / | 2.8
CSc1cccc(NC(=S)NCCN(C2CCCCC2)C2CCCC2)c1 | 0.3 | 5.5
COc1ccc(CNC(=O)Cn2ccc3ccccc3c2=O)cc1 | / | 2.7
